From PubChem
Hsc70 – small molecules displacing fluorescent ligand from Hsc70 – biochemical, fluorescence polarization, primary screen (AID 568). 83,000 tested, under 10 active. displacement, % at 20 µM, or IC50 in µM where a hit was titrated. Hsc70 fluorescence polarization, probe displacement; higher % means a stronger effect; strong numbers were not always called active;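 active = displacement above 50% without optical interference and an IC50 on retest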;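 also: ATPase domain with a fluorescein-tagged ATP probe; 0% = vehicle and 100% = excess ADP; read after one hour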
MT1-MMP reporter – MT1-MMP gene expression reporter suppression – cell-based, luciferase reporter, luminescence (AID 618); 87,000 compounds, 0.62% hits; calls from a first round at 10 µM; hits with a dose series show EC50 in µM; MT1-MMP promoter luciferase reporter cells, luminescence;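 active = over half of the reporter light lost at 10 µM or EC50 under 50 µM; inactive = the rest and hits that failed the dose series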;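 also: actives suppress MT1-MMP promoter-driven transcription so potencies describe inhibitors; HT1080 fibrosarcoma cells; overnight exposure; toxic or luciferase-blocking compounds were not removed from the actives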
WNV NS2B-NS3 inh – blocks West Nile virus NS2B-NS3 protease activity. P06935. WNV NS2B-NS3 protease, fluorogenic substrate Ex360/Em465; stronger effect = lower value. z-score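 (tested at a level between 10 and 100 µM)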. 65,000 compounds, 0.18% hits. AID 577;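 active = z-score at -3 or under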;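 also: score is relative to mean and spread of the compound wells of a plate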
Target sequence (P06935 1371-1501 limits assumed): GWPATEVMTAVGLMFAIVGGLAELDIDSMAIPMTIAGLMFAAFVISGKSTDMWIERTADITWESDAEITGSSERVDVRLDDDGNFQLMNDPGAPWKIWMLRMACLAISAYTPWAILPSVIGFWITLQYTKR
Target sequence (P06935 1502-1679 limits assumed): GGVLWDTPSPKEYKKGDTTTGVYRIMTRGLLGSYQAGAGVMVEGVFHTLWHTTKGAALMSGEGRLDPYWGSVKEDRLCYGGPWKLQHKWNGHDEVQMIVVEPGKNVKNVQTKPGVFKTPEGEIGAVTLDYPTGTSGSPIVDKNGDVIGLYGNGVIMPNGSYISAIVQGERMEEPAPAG
* marks the source's active call; other numbers are inactive results; i = inactive; / = not tested or not shown. An excerpt. The share of hits here may be higher or lower than overall.

structure | Hsc70 | MT1-MMP reporter | WNV NS2B-NS3 inh
O=S(=O)(c1ccc2nc(-c3ccco3)c(-c3ccco3)nc2c1)N1CCOCC1 | -0.5% | i | -1.1
O=c1[nH]c2cc3c(cc2cc1CN(Cc1nnnn1CC1CCCO1)C1CCCC1)OCO3 (stereo unspecified) | 6.5% | i | -2
CCCC(=O)C1=C(O)C(C(=O)OC)C(C)(C)CC1=N (stereo unspecified) | 4.0% | i | -0.57
C=CCOC(=O)CCC(=O)Nc1cc(OC)nc(OC)n1 | -2.2% | i | 0.06
CCC(C)NC(=O)CSC1=Nc2ccccc2C2=NC(CC(=O)NCc3ccccc3)C(=O)N12 (stereo unspecified) | -4.0% | i | 0.68
COc1ccc(-c2[nH]nc3c2C(c2ccc(OC(=O)N4CCOCC4)cc2)C(C#N)=C(N)O3)cc1 (stereo unspecified) | -7.1% | i | 2.1
CCn1c(Cc2ccccc2)nnc1SCC(=O)Nc1nnc(-c2ccccc2)s1 | -4.4% | i | -0.3
COc1ccccc1N1CC(O)=C(c2nc3ccccc3s2)C1=N | -7.5% | i | 0.48
COc1nc(OC)nc(N2CCCCCC2)n1 | 7.4% | i | /
O=C(NC1CCCCC1)NC1(C(=O)NCCCN2CCOCC2)CCCCC1 | -1.1% | i | -0.69
COc1cc2oc(=O)c(Br)c(C)c2c(OC)c1OC | -8.8% | i | -0.74
Cc1cc(C)nc(SCc2ccc3nonc3c2)n1 | -4.5% | i | -0.74

Quoted from the listing.
C=CCOC(=O)CCC(=O)Nc1cc(OC)nc(OC)n1 | Hsc70 = -2.2%
O=c1[nH]c2cc3c(cc2cc1CN(Cc1nnnn1CC1CCCO1)C1CCCC1)OCO3 (stereo unspecified) | WNV NS2B-NS3 inh = -2
O=C(NC1CCCCC1)NC1(C(=O)NCCCN2CCOCC2)CCCCC1 | Hsc70 = -1.1%
Cc1cc(C)nc(SCc2ccc3nonc3c2)n1 | WNV NS2B-NS3 inh = -0.74

(cont.)
structure | Hsc70 | MT1-MMP reporter | WNV NS2B-NS3 inh
N#Cc1c(N)n(CCCN2CCOCC2)c2nc3ccccc3nc12 | -4.8% | i | 4.3
COCc1nnc(NC(=O)CCCOc2ccccc2OC)s1 | 0.5% | i | -0.73
COc1ccc(C(=O)SC2=NCCS2)cc1OC | 2.8% | i | -1
O=c1[nH]c(CN2CCN(Cc3ccc4c(c3)OCO4)CC2)nc2sc3c(c12)CCC3 | -4.4% | i | -0.38
CC1CC(=O)C2=C(C1)Nc1ccccc1N(C(=O)COc1ccccc1)C2c1ccco1 (stereo unspecified) | -1.4% | i | 0.49
Cc1ccc(NC2=C/C(=N\S(=O)(=O)c3cccs3)c3ccccc3C2=O)c(C)c1 | 1.3% | i | /
Cc1cc(Nc2ccc3c(c2)OCCO3)n2ncnc2n1 | -2.2% | i | 0.67
O=C(Nc1nc(-c2ccccc2)cs1)C1CCCO1 (stereo unspecified) | 5.8% | i | -0.36
Cn1c(SCC(=O)NCc2cccs2)nnc1-c1ccco1 | 3.8% | i | 0.14
COc1cc(C2NC(=O)NC(c3ccccc3)=C2C(C)=O)ccc1OCC(=O)O (stereo unspecified) | 0.5% | i | -0.58
OCCSc1nc2ccccc2n1CCOc1ccccc1 | 8.4% | i | /
O=C(c1ccc(F)cc1F)N1CCN(c2ncccn2)CC1 | -4.0% | i | /
O=C(O)C1C2C=CC(C3CC23)C1C(=O)N1CCc2ccccc21 (stereo unspecified) | 0.2% | i | /
O=C(CN1CCN(c2ccc(F)cc2)CC1)Nc1cc(C(F)(F)F)ccc1Cl | -2.9% | i | 1.3
CCn1cc(C(=O)OCC(=O)NCc2ccc3c(c2)OCO3)c(=O)c2ccc(C)nc21 | -2.4% | i | 1.1
CCCCCCn1c(SCC(=O)OC)nc2c1c(=O)[nH]c(=O)n2C | 9.8% | i | 0.07
O=C(c1ccco1)N1CCN(C(=O)C2c3ccccc3Oc3ccccc32)CC1 | -0.1% | i | -1.3
CCN1C(=O)NC(c2cccnc2)C(C(=O)OC)=C1C (stereo unspecified) | -1.4% | i | -0.85
Cc1cc(NC(=O)CSc2nc(-c3ccc(Cl)cc3)cs2)no1 | -6.1% | i | /
O=[N+]([O-])c1ccc(Cl)c(/C=N/N2CCN(Cc3ccc(Cl)cc3)CC2)c1 | 2.6% | i | /
Cc1cc(NS(=O)(=O)c2ccc(C3CCCCC3)cc2)no1 | 2.4% | i | -0.09
CC(=O)c1ccc(-c2nc3c4ccccc4ccn3c2C(C)=O)o1 | -2.2% | i | -1.2
CCOc1ccc(C(C)NC(=O)CCC(=O)O)cc1 (stereo unspecified) | 6.5% | i | 1.4
Cn1c(Cc2cccs2)nnc1SCC(=O)N1CCc2ccccc21 | -6.4% | i | 0.13
O=C(c1cccc(S(=O)(=O)N2CCOCC2)c1)N1CCOCC1 | -2.9% | i | -0.56
CC(C)(C)c1ccc(-c2nnc(SCCC#N)n2C2CCCC2)cc1 | -0.8% | i | -0.35
CSC1=C(C#N)C(c2ccc3c(c2)OCO3)C2=C(CCCC2=O)N1 (stereo unspecified) | 2.5% | i | /
CCCN1C(=O)C(NS(=O)(=O)c2ccc(N)cc2)(C(F)(F)F)C(C(=O)OC)=C1C (stereo unspecified) | 3.7% | i | -0.59
CC(C)Cn1cnc2c1c(=O)n(CC(O)c1ccccc1)c(=O)n2CC(C)C (stereo unspecified) | -1.4% | i | /
CN1CCc2c(sc(/N=C/c3ccco3)c2C(N)=O)C1 | 3.1% | i | -1.6
CCN(CC)CCNC(=O)c1cn(C)c2ccc(S(=O)(=O)N(C)C3CCCCC3)cc2c1=O | 5.1% | i | -0.63
COc1ccc(CN(C(=O)Cn2nnc3ccccc32)C(C(=O)NC(C)(C)C)c2ccco2)cc1 (stereo unspecified) | -2.0% | i | -0.48
Cc1ccc(C2C(C#N)C(C#N)N3CCCN23)cc1 (stereo unspecified) | -1.1% | i | /
O=c1c2ccccc2c(C=NCCCN2CCOCC2)c(O)n1Cc1ccccc1 | 2.4% | i | 0.14
COc1ccc(N2C(=O)C3CCCN3C2c2cc(OC)c(OC)c(OC)c2)cc1 (stereo unspecified) | 1.3% | i | 0.79
CCOC(=O)Nc1ccc(C(N)=O)cc1 | -5.0% | i | 1.2
CC1=C(C(=O)OCC2CCCO2)C(c2ccncc2)C2=C(CC(C)(C)CC2=O)N1 (stereo unspecified) | 2.0% | i | 0.02
OCCNc1nc(NCCC2=CCCCC2)nc(N2CCOCC2)n1 | 2.6% | i | /
COc1ccc2c(=O)c3c(=O)n(Cc4ccco4)c(C4CCCCC4)nc3oc2c1 | 3.8% | i | 1.1
Cc1ccc2[nH]c(=S)cc(C)c2c1 | -4.0% | i | -0.49
Cc1nc(N)sc1C(=O)Nc1ccccc1 | -0.3% | i | /
CC(=O)Oc1ccccc1-c1nc(C)nc(N(C)C(C)=O)n1 | -2.4% | i | -0.12
Cc1oc2cc(O)ccc2c(=O)c1Oc1ccccc1Br | -2.7% | i | 0.83
Cc1sc(NC(=O)C2CCCO2)c(C#N)c1C (stereo unspecified) | -1.8% | i | 0.23
O=C(Nc1ccc(Cl)cc1)N1CCCC1 | 2.3% | i | -0.2
Cc1c(NC(=O)c2ccc(CN3CCc4ccccc4C3)cc2)c(=O)n(-c2ccccc2)n1C | -0.6% | i | -0.07
CC(C)CC(C(=O)Nc1oc(-c2ccco2)c(-c2ccco2)c1C#N)N1C(=O)c2ccccc2C1=O (stereo unspecified) | -26% | i | -2
CCn1c(SCC(=O)Nc2ccccc2C(=O)OC)nnc1-c1ccoc1C | -3.5% | i | -0.49
CCCn1c(CNc2ccc(Br)cc2)nc2ccccc21 | 0.1% | i | 0.92
COC(=O)c1c(NC(=O)Cc2cccs2)sc2c1CCC(C)C2 (stereo unspecified) | -8.3% | i | 0.17
COc1ccc(OC)c(S(=O)(=O)NCCc2ccccc2)c1 | 0.8% | i | -0.92
CCn1c(SC(C)C(=O)OC)nnc1-c1c[nH]c2ccccc12 (stereo unspecified) | 8.3% | i | 0.2
COc1cccc(C2C(C#N)=C(N)Oc3c2oc(CO)cc3=O)c1OC (stereo unspecified) | -0.7% | i | 2.2
N#CCCn1c(C(C#N)(CCC#N)CCC#N)nc2ccccc21 | 1.2% | i | -1
COc1cc(OC)cc(C(=O)NCC(=O)N2CCC(C)CC2)c1 | 3.5% | i | -0.48
CCCCN1C(=O)CC(Sc2ccccc2C(=O)O)C1=O (stereo unspecified) | 1.3% | i | /
CC(NC(=O)NCCCC(=O)O)(C(F)(F)F)C(F)(F)F | -2.3% | i | 0.37
Cc1onc(-c2ccccc2)c1C(=O)OCC(=O)c1ccccc1 | 2.3% | i | -0.09
COc1ccc(Oc2nnc(C)c3ccccc23)cc1 | -11% | i | /
Cc1ccc(C(=O)O/N=C(\N)c2ccc(Br)cc2)cc1C | -2.1% | i | /

Carrying on.
Below each SMILES: Hsc70, MT1-MMP reporter, WNV NS2B-NS3 inh
- CCN(CC)C(=O)c1ccc(C(=O)c2ccccc2)cc1
 : 4.5%, i, /
- O=C(c1cc2cc(Br)cc(Br)c2oc1=O)N1CCCC1
 : 6.2%, i, /
- Cc1nc2oc(C(=O)c3ccccc3)c(N)c2c2c1COC(C)(C)C2
 : 3.9%, i, -0.55
- O=C(Nc1ccccc1Cl)c1cccs1
 : -7.2%, i, 1.8
- CC(C)Cc1cc(C(=O)NCCN2CCOCC2)no1
 : -5.8%, i, 0.56
- Cc1ccc(S(=O)(=O)N2CCCC2C(=O)Nc2cc(C)on2)cc1 (stereo unspecified)
 : -5.8%, i, -1.6
- Cc1ccc(-c2nnn(CC(=O)Nc3cccc4cccnc34)n2)o1
 : -1.7%, i, 1.2
- CN(C)S(=O)(=O)N1CCN(c2cccc(Cl)c2)CC1
 : 0.1%, i, 0.95
- CCOCCCn1c(C)nc2c(c1=O)c1nc3ccccc3nc1n2-c1ccc(C)cc1
 : 0.0%, i, -0.12
- CCOC(=O)C1CCN(Cc2c(O)ccc3ccccc23)CC1
 : 0.9%, i, 1.2
- CCC(c1nnnn1CCOC)N(Cc1ccc(C)cc1)Cc1cc2cc(OC)ccc2[nH]c1=O (stereo unspecified)
 : 1.4%, i, 0.9
- Cc1cccc(-c2nnc(SCC(=O)Nc3nc4c(s3)CCCC4)n2C)c1
 : 6.0%, i, /
- Cc1ccc(C(=O)CSc2nnc(-c3ccccc3N)n2C)cc1
 : -3.5%, i, 0.13
- O=C(O)c1cccnc1SC1CC(=O)N(Cc2ccccc2)C1=O (stereo unspecified)
 : 7.7%, i, -0.51
- CCCCOc1ccc(C(=O)CCNC(C(=O)O)C(C)CC)cc1 (stereo unspecified)
 : -3.6%, i, -1.1

3 of these compounds in a different format:
CCN(CC)C(=O)c1ccc(C(=O)c2ccccc2)cc1
  Hsc70: 4.5%	MT1-MMP reporter: i	WNV NS2B-NS3 inh: /

Cc1nc2oc(C(=O)c3ccccc3)c(N)c2c2c1COC(C)(C)C2
  Hsc70: 3.9%	MT1-MMP reporter: i	WNV NS2B-NS3 inh: -0.55

CCOCCCn1c(C)nc2c(c1=O)c1nc3ccccc3nc1n2-c1ccc(C)cc1
  Hsc70: 0.0%	MT1-MMP reporter: i	WNV NS2B-NS3 inh: -0.12

(further entries)
Below each SMILES: Hsc70, MT1-MMP reporter, WNV NS2B-NS3 inh
- CC(=O)N(Cc1c(C#N)c2ccccc2n1C)c1ccccc1
 : 1.5%, i, /
- Cc1ccn(C(=O)c2cc3c(C)nn(-c4ccccc4)c3s2)n1
 : 3.4%, i, /
- CCCOC(=O)c1cc(=O)[nH]c2ccccc12
 : 1.1%, i, 0.75
- CC(c1ccccc1)N1CC(C(=O)N2CCN(c3ccccc3)CC2)CC1=O (stereo unspecified)
 : -0.9%, i, 0.61
- CCn1c(C(=O)N2CCC(C(=O)NCc3cccs3)CC2)cc2sccc21
 : 5.2%, i, 1.2
- COc1ccc(-c2ccc(Nc3ccc(C(=O)N4CCOCC4)cc3)nn2)cc1OC
 : 0.4%, i, /
- CCCOc1ccc(/C(O)=C2/C(=O)C(=O)N(CCN(C)C)C2c2ccco2)cc1 (stereo unspecified)
 : 0.4%, i, -0.36
- COc1ccc(OC)c(S(=O)(=O)N2c3ccccc3CC2C)c1 (stereo unspecified)
 : -2.4%, i, 1.9
- Cc1ccc2nsnc2c1S(=O)(=O)N1CCOCC1
 : 1.1%, i, /
- O=C(CS(=O)(=O)c1c[nH]c2ccccc12)N1CCCCC1
 : 2.0%, i, -0.82
- Cc1ccc(-n2c(C)cc(C)c(C#N)c2=O)cc1
 : -5.3%, i, 0.68
- COCC(C)NC(=O)NC1(C(F)(F)F)Oc2ccc(Cl)cc2O1 (stereo unspecified)
 : -4.1%, i, 0.43
- O=c1c2c3c(sc2n2cnnc2n1CCc1ccccc1)CCCC3
 : -1.0%, i, -0.28
- COC(=O)c1ccc(NC(=O)CSc2nnc(COc3ccccc3)n2C)cc1
 : 7.5%, i, -0.62
- CCN(Cc1ccccc1)Cc1c(F)cccc1F
 : 2.6%, i, 0.15
- COc1cccc(NC(=O)c2oc3ccccc3c2NC(=O)C2CC2)c1
 : -1.3%, i, 0.26
- CCC(=O)Nc1c2c(nn1-c1ccc(C)cc1C)CSC2
 : 3.7%, i, -0.4
- O=S(=O)(c1cccc2nsnc12)N1CCOCC1
 : 2.0%, i, -0.03
- CCc1nc2oc3cc(OC)ccc3c(=O)c2c(=O)n1Cc1ccco1
 : -5.1%, i, 1.1
- CCOc1cccc2cc(C(=O)N3CCc4ccccc4C3)c(=O)oc12
 : -2.1%, i, 0.32
- COCCn1c(SCC(=O)N2CCCc3ccccc32)nnc1-c1ccoc1C
 : 3.4%, i, /
- CCn1c(COc2cccc3ccccc23)nnc1SCC(=O)OC1CCCCC1
 : -1.5%, i, /
